Kir21 inh: inhibitors of mouse Kir2.1 inward-rectifier potassium channel | HEK293-Kir2.1, FluxOR thallium flux fluorescence; hits give low values | B-score at 10 µM | actives 0.85% (n = 310,000) | AID 1672, 2009;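 active = fluorescence ratio B-score at or below minus 3 SD of library scores, with starting-brightness B-score within 2 SD, cut at about -4.2 in these data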;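 note: channel flux triggered by added potassium and thallium sulfate stimulus; B-score of peak minus minimum fluorescence over baseline after thallium stimulus; more negative B-score means stronger Kir2.1 block with less thallium influx; some compounds called inactive have numbers as strong as hits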
Target sequence (P35561 whole entry, looked up): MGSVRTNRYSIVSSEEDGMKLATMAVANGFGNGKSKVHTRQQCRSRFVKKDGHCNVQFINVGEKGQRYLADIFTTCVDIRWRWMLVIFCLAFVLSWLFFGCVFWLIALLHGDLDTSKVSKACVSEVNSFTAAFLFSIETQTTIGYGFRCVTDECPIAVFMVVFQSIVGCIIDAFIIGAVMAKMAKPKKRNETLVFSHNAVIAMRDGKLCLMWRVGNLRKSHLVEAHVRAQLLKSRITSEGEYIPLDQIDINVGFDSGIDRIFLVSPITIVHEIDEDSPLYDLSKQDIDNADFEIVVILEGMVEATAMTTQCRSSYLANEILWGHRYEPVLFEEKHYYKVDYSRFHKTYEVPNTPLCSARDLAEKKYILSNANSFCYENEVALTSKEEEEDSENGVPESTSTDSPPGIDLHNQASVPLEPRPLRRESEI
* = called active by the depositor; & = joins results of further samples. These rows are one share of the data, and most or all hits are left out here.

`CCN(CC(=O)Nc1c(F)cccc1F)C(=O)c1ccc(=O)[nH]c1` gave Kir21 inh -0.09.
Screening COc1ccc2cc3cc(C(=O)NCCCN4CCOCC4)oc3nc2c1 returned Kir21 inh -1.2.
For CCOc1ccc(-c2cn(CCC#N)cn2)cc1 the results were Kir21 inh 0.6.
`CCCN(CCC)Cc1c(C(=O)OCC)nnn1-c1nonc1N` gave Kir21 inh -3.4.
For COc1ccccc1CCC(=O)Oc1ccccc1C#N the results were Kir21 inh -1.1.
`CC(C)OC(=O)c1ccc(NC(=S)NC(=O)c2cncc(Br)c2)cc1` gave Kir21 inh -0.25.
CCCCn1cnc2c(oc3ccccc32)c1=O was read as Kir21 inh -1.1.
Screening Cc1ccc(C(C)C)c(OCCSc2nc3ccccc3n2CC(=O)O)c1 returned Kir21 inh 2.
`CC(CCc1ccccc1)NCc1ccncc1` (stereo not drawn) gave Kir21 inh -1.9.
Screening COc1ccc2c(=O)c(N3C(=O)c4ccccc4C3=O)c(C)oc2c1 returned Kir21 inh -0.26.
O=C(NCCS(=O)(=O)NCc1ccccn1)c1ccccc1 was read as Kir21 inh -0.36.
CCC(=O)Nc1ccc(NC(=O)CSc2nnc(-c3ccco3)n2C)cc1 was read as Kir21 inh -0.11.
`CC1=NN(C(N)=S)C(=O)C1N=Nc1cccc(C)c1` (stereo not drawn) gave Kir21 inh -0.48.
Nc1nc(-c2ccccc2)cc(N2CCCCC2)n1 was read as Kir21 inh 0.16.
Screening COC(=O)[C@H]1C[C@H]1[C@@H](NC(=O)c1cccnc1)c1ccccc1 returned Kir21 inh 0.3.
`CC(C)C[C@H](NC(=O)C1CCN(S(=O)(=O)c2ccccc2)CC1)C(=O)NCc1ccccn1` gave Kir21 inh 0.59.
Screening CNC(=O)Oc1ccc2c(c1)[C@]1(C)CCN(C)[C@@H]1N2C returned Kir21 inh -0.07&0.94.
Screening CC(=O)c1cc(NC(=O)c2ccccc2)c(=O)oc1C returned Kir21 inh -2.6.
`CSc1nsc(SCc2ccc(Cl)cc2)n1` gave Kir21 inh -1.2.
Cn1cc(Br)c(C(=O)N2CCN(c3cccc(Cl)c3)CC2)n1 was read as Kir21 inh -1.5.

Random excerpt: 2 records from the list, in no set order.
`CC1=NN(C(N)=S)C(=O)C1N=Nc1cccc(C)c1` (stereo not drawn) gave Kir21 inh -0.48.
O=C(NCCS(=O)(=O)NCc1ccccn1)c1ccccc1 was read as Kir21 inh -0.36.

Additional compounds.
Screening COc1ccc(S(=O)(=O)N2CCN(C)CC2)cc1C returned Kir21 inh 0.68.
Screening Cc1ccnc(NC(=O)c2ccccc2[N+](=O)[O-])c1 returned Kir21 inh 1.3.
O=C(Cn1cnc2c(cnn2-c2ccc(F)cc2)c1=O)NCCc1ccccc1 was read as Kir21 inh 0.29.
For CN1CC(=O)N(C)c2ncn(Cc3ccccc3)c2C1=O the results were Kir21 inh 0.52.
`CC(=O)c1ccc(-n2ccnc2)cc1` gave Kir21 inh -0.03.
For CC(C)c1nnc(NC(=O)CCS(=O)(=O)Cc2ccccc2)s1 the results were Kir21 inh -0.17.
Screening CCOC(=O)c1csc(NC(=O)CN2CCOCC2)n1 returned Kir21 inh 0.92.
For COc1cccc(C(=O)NC(=S)N2CCN(c3ccc(C(F)(F)F)cc3[N+](=O)[O-])CC2)c1 the results were Kir21 inh -1.
`O=c1[nH]c(CN(CCc2ccccc2)S(=O)(=O)c2ccc(Cl)cc2)nc2ccccc12` gave Kir21 inh 1.1.
Screening Cc1nc2ccccc2c2oc(C(=O)NC3CC3)cc12 returned Kir21 inh -0.08.

By substructure, the entries above with four or more nitrogen atoms (nine)
`CCCN(CCC)Cc1c(C(=O)OCC)nnn1-c1nonc1N` gave Kir21 inh -3.4.
CCC(=O)Nc1ccc(NC(=O)CSc2nnc(-c3ccco3)n2C)cc1 was read as Kir21 inh -0.11.
`CC1=NN(C(N)=S)C(=O)C1N=Nc1cccc(C)c1` (stereo not drawn) gave Kir21 inh -0.48.
Nc1nc(-c2ccccc2)cc(N2CCCCC2)n1 was read as Kir21 inh 0.16.
`CC(C)C[C@H](NC(=O)C1CCN(S(=O)(=O)c2ccccc2)CC1)C(=O)NCc1ccccn1` gave Kir21 inh 0.59.
Cn1cc(Br)c(C(=O)N2CCN(c3cccc(Cl)c3)CC2)n1 was read as Kir21 inh -1.5.
O=C(Cn1cnc2c(cnn2-c2ccc(F)cc2)c1=O)NCCc1ccccc1 was read as Kir21 inh 0.29.
For CN1CC(=O)N(C)c2ncn(Cc3ccccc3)c2C1=O the results were Kir21 inh 0.52.
For COc1cccc(C(=O)NC(=S)N2CCN(c3ccc(C(F)(F)F)cc3[N+](=O)[O-])CC2)c1 the results were Kir21 inh -1.

(further entries)
Screening Cc1ccc(C)c(COC(=O)c2cc([N+](=O)[O-])ccc2N2CCOCC2)c1 returned Kir21 inh 1.9.
For Cc1ccc(NC(=O)Cn2cc([N+](=O)[O-])nc2C)cc1C the results were Kir21 inh 1.3.
c1ccc(-c2nc(NCC3CCCO3)c3oc4ccccc4c3n2)cc1 (stereo not drawn) was read as Kir21 inh 1.5.
For CCC1CCCCN1Cc1ccc(OC)c(OC)c1 (stereo not drawn) the results were Kir21 inh 0.68.
Screening O=C1CSC(=O)N1CC(O)COc1ccc(Cl)cc1 (stereo not drawn) returned Kir21 inh 0.56.
Cc1csc(NC(=O)c2cccn2C)n1 was read as Kir21 inh 0.86.
For CC(=O)c1c(C)[nH]c(C(=O)Nc2cccc(S(=O)(=O)N(C)C)c2)c1C the results were Kir21 inh 0.78.
`O=C(O)CCC(=O)CCC(=O)c1ccc(Cl)cc1` gave Kir21 inh 1.3.
Screening CC1=NN(C(=O)c2ccccc2-n2cccc2)C(O)(C(F)(F)F)C1 (stereo not drawn) returned Kir21 inh -0.46.
`Nc1ccc2c(c1)nc(Cc1ccccc1)n2CCO` gave Kir21 inh -0.01.
For CCOC(=O)N1CCC(NC(=O)C2CCCN(S(=O)(=O)c3ccc4c(c3)oc(=O)n4C)C2)CC1 (stereo not drawn) the results were Kir21 inh 0.68.
For O=C(NCc1ccco1)c1ccc(N2CCOCC2)c([N+](=O)[O-])c1 the results were Kir21 inh 0.72.
`Cc1cc(NS(=O)(=O)c2ccc(OCCNS(C)(=O)=O)cc2)no1` gave Kir21 inh -0.99.
For Fc1ccc(Cn2nnnc2CN2CCN(C3CCCC3)CC2)cc1 the results were Kir21 inh -0.01.
Cc1ccc2[nH]c(=O)c(CN(C(=O)c3cccc([N+](=O)[O-])c3)C(C)C)cc2c1 was read as Kir21 inh 1.1.
`Cc1ccc(S(=O)(=O)Nn2c(C)nnc2-n2nc(C)cc2C)cc1` gave Kir21 inh 0.85.
CCNCc1cc2cc(C)ccc2[nH]c1=O was read as Kir21 inh 0.8.
Screening Cc1cc(C)n2nc(S(=O)(=O)N(C)c3ccccc3)nc2n1 returned Kir21 inh 0.07.
For Cc1cccc(C(=O)NNC(=O)c2ccc(Br)cc2)c1 the results were Kir21 inh 1.6.
`COc1ccccc1CCN=C(N)NS(=O)(=O)c1ccc(F)cc1` gave Kir21 inh -3.7.
FC(F)(F)c1cc(-c2ccccc2)nc(-n2cncn2)n1 was read as Kir21 inh -0.76.
COC(=O)c1c[nH]n2c(=O)c(C(C)C)c(C)nc12 was read as Kir21 inh -0.48.
CCN(CC(=O)Nc1c(F)cccc1F)C(=O)C1CCN(S(=O)(=O)c2ccc(C)c(C)c2)CC1 was read as Kir21 inh 0.
For CCN(CC)CCN(Cc1cc2cc(C)ccc2[nH]c1=O)C(=O)Nc1ccccc1OC the results were Kir21 inh 1.5.
For CC(=O)Nc1ccc(C2(c3ccc(NC(C)=O)cc3)NC(=O)c3ccccc32)cc1 the results were Kir21 inh 0.19.
`CCCC(=O)Nc1ccc(N2CCN(C(=O)c3cccs3)CC2)cc1` gave Kir21 inh 0.82.
`COc1ccccc1N1CCN(C2CCC(C)CC2)CC1` (stereo not drawn) gave Kir21 inh 0.57.
`CC(Oc1ccc(C(C)(C)C)cc1)c1ccnc2nc(/N=C/N(C)C)nn12` (stereo not drawn) gave Kir21 inh 0.66.
Screening O=C(CCc1ccccc1)NNC(=O)COc1ccc(Cl)cc1 returned Kir21 inh -0.64.
For Cn1cnc([N+](=O)[O-])c1Nc1ccc(O)cc1 the results were Kir21 inh 0.03.
Screening COc1ccccc1CNC(=O)C1CC2Cn3c(nc4cc(Cl)c(Cl)cc43)C2N1C (stereo not drawn) returned Kir21 inh -0.13.
`Cc1ccccc1CN1CCN(CC(=O)NC(C)c2ccccc2)CC1` (stereo not drawn) gave Kir21 inh -0.69.
O=C(Nc1nc(-c2ccc(F)cc2)cs1)c1cccc(N2C(=O)CCC2=O)c1 was read as Kir21 inh 1.8.
`O=C1CCC(C(=O)N2CCC(CO)CC2)CN1Cc1ccc(Cl)cc1` (stereo not drawn) gave Kir21 inh 1.4.
Screening CC1CC2=C(C(=O)O1)C(C)Nc1ccccc1N2 (stereo not drawn) returned Kir21 inh -0.01.
Screening Cc1cc(C(=O)CN2C(=O)NC3(CCCCC3)C2=O)c(C)n1C returned Kir21 inh -0.41.
For Cc1cc(NC(=O)CCC(=O)N(CC(=O)NCC2CCCO2)c2ccccc2C)no1 (stereo not drawn) the results were Kir21 inh 2.
CCOC(=O)c1[nH]c(C)c(CCC(=O)O)c1C was read as Kir21 inh 2.3&0.08.
`Cc1cc(N(CC(=O)NC2CC2)S(C)(=O)=O)ccc1Br` gave Kir21 inh 0.22.
For CCC(C)NS(=O)(=O)c1ccc(S(=O)(=O)N(CC(=O)Nc2ccccc2)CC2CCCO2)cc1 (stereo not drawn) the results were Kir21 inh 0.12.
O=C(Nc1nccs1)C1CCN(S(=O)(=O)c2cnc[nH]2)CC1 was read as Kir21 inh 1.6.
COc1ccccc1Nc1ncnc2ccccc12 was read as Kir21 inh -0.25.
For COc1ccc(/C(O)=C2/C(=O)C(=O)N(CCN3CCOCC3)C2c2cccnc2)cc1OC (stereo not drawn) the results were Kir21 inh 1.7.
Cc1ccc(N(CC(=O)NCC2CCCO2)C(=O)CCC(=O)Nc2nccs2)cc1C (stereo not drawn) was read as Kir21 inh -0.48.
For CC(C)[C@H](NC(=O)c1ccccc1)C(=O)OCC(=O)c1ccccc1F the results were Kir21 inh -3.9.
Screening COc1ccc(C(=O)Nc2cc(C)c(NC(=O)c3ccccc3OC)cn2)cc1 returned Kir21 inh -0.08.
Screening COCc1nc2ccccc2n1CCCOc1ccccc1 returned Kir21 inh -1.4.
N#C/C(=C\c1c(N2CCCCCC2)nc2ccccn2c1=O)C(=O)NCc1ccco1 was read as Kir21 inh -0.56.
CCOc1ccc(N2C(=O)CC(SCCN)C2=O)cc1 (stereo not drawn) was read as Kir21 inh 0.05.
For COC(=O)Nc1ccc(S(=O)(=O)N2CCCC(C(=O)N3CCCCC3)C2)cc1 (stereo not drawn) the results were Kir21 inh 0.6.
Cn1nc(-c2ccc(C(=O)Nc3cccc(Cl)c3)cc2)c2ccccc2c1=O was read as Kir21 inh 0.68.
Screening COc1ccc2nc(NC(=O)CN(C)S(=O)(=O)c3cccs3)sc2c1 returned Kir21 inh -0.87.
Screening Cc1ccnc(NC2(C(F)(F)F)N=C(c3ccccc3)NC2=O)c1 (stereo not drawn) returned Kir21 inh -0.69.
Screening CCC(C)(C)NC(=O)C(c1ccc(F)cc1)N(CCOC)C(=O)CCC(=O)Nc1nccs1 (stereo not drawn) returned Kir21 inh 0.53.
`CCNS(=O)(=O)c1ccc(CCC(=O)Nc2cc(Cl)ccc2Oc2ccccc2)cc1` gave Kir21 inh -0.61.
`CC1CC(C)CN(C(=O)COC(=O)CCCN2C(=O)c3cccc4cccc(c34)C2=O)C1` (stereo not drawn) gave Kir21 inh 0.06.
COc1ccc(C2=NCCn3nc4cc([N+](=O)[O-])ccc4c32)cc1 was read as Kir21 inh 0.07.
For COc1ccc(F)cc1S(=O)(=O)N1CCC(C(N)=O)CC1 the results were Kir21 inh -0.57.
CCOc1ccc(-c2nc(C#N)c(N3CCN(CC)CC3)o2)cc1 was read as Kir21 inh -0.31.
Screening O=C1C(Cl)=C(NCC2CCCO2)C(=O)N1c1cccc(Cl)c1Cl (stereo not drawn) returned Kir21 inh 0.49.
Cc1ccc(S(=O)(=O)Nc2nc3n(n2)C(c2ccc(Cl)cc2)CC(=O)N3)cc1 (stereo not drawn) was read as Kir21 inh 1.3.
`Cc1cccc(NC(=O)c2ccc(Cn3cc(C(F)(F)F)ccc3=O)cc2)c1` gave Kir21 inh -0.38.
Screening CCOC(=O)C1CCCN(C(=O)c2cn(CC)c(=O)c3cc(OC)c(OC)cc23)C1 (stereo not drawn) returned Kir21 inh 1.9.
O=C(C1=C[C@H](c2coc3ccccc3c2=O)C[C@H](OCCCCO)O1)N1CCN(Cc2ccccc2)CC1 was read as Kir21 inh -0.63.
For CCSc1nc2nn(-c3ccccc3)c(=O)c-2c2n1CCCCC2 the results were Kir21 inh 0.32.
O=c1[nH]n(-c2ncnc3c2cnn3-c2ccccc2)c(=O)c2ccccc12 was read as Kir21 inh -0.67.
O=S(=O)(c1ccc(Br)c2nsnc12)N1CCOCC1 was read as Kir21 inh -0.96.
`Cc1nn(Cc2ccccc2)c(Cl)c1C(=O)OCc1nnc(-c2ccccc2)o1` gave Kir21 inh 0.04.
`Cc1ccc(C2C3=C(CC(C)(C)CC3=O)NC3=C2C(=O)CC(C)(C)C3)o1` gave Kir21 inh -0.13.
For O=S1(=O)CC(O)C(N(CCO)C(=S)Nc2ccccc2)C1 (stereo not drawn) the results were Kir21 inh -0.02.
Screening CCc1cc(SC#N)cc(C)c1NC(=O)CCl returned Kir21 inh 0.01.
Screening CC1=C(C(=O)OCc2ccccc2)C(c2ccc([N+](=O)[O-])cc2)NC(=O)N1 (stereo not drawn) returned Kir21 inh 0.23.

Assay outcomes as filed in PubChem BioAssay.
